Rango release inh – inhibitors of RanGTP-induced Rango-importin beta complex dissociation; AID 540253; Biochemical FRET Rango-importin beta, RanGTP-induced dissociation; hit rate 0.071% among 340,000; Potency, µM (top dose mostly 46.1 µM), for inactives: at the highest dose activity change, negative = inhibition; active means falling FRET ratio curve, often poorly fitted, with flat reads before Ran was added; inconclusive means other falling curves, or compound fluorescence or quenching; inactive means flat or rising ratio curve;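 also: potency is read from the fitted curve at half-maximal effect; % of control where 0% means no effect; nearly all actives have a fitted effect of over 45% in size; -100% = wells without RanGTP and RCC1; the record marks most hits as doubtful in a second field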
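Rango/importin beta premix (0.1/0.25 uM final), PBS + 1 mM DTT + 0.02% Tween-20 + 0.1% BSA; cpd 5 min RT; FRET pre-read; + RanGTP-RCC1 (0.6 uM Ran, 2 mM GTP, 0.2 uM RCC1); 45 min RT; FRET post-read, ex 430, em 486/530 nm.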
Rango complex inh – prevents formation of the Rango-importin beta complex | hit rate 0.031% among 340,000 | Rango CFP/YFP FRET sensor + importin beta, 45 min | Q14974 | Potency, µM (titrated, usually from 92.2 µM), for inactives: at the highest dose inhibition of complex formation | AID 540263; active = rising FRET ratio curve, often small or poorly fitted; inconclusive = mostly compound fluorescence or quenching in the first reads; inactive = flat curves in all reads;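 also: potency is read from the fitted curve at half-maximal effect; 0% = DMSO wells and 100% = buffer wells lacking importin beta; nearly all actives have a fitted effect of over 15% in size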
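FRET biosensor Rango (snurportin 1 IBB between N-terminal EYFP and C-terminal Cerulean), 50 nM in PBS/1 mM DTT/0.02% Tween-20/0.1% BSA, preincubated 5 min RT with compound; 0.125 microM importin beta added, 45 min RT, CFP/YFP FRET ratio read.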
GLA inh pH 4.5 – alpha-galactosidase A (human) inhibition, pH 4.5; P06280; purified enzyme, 4-MU-alpha-Gal fluorescence, pH 4.5; activity change, negative = inhibition, % at 105 µM; 230,000 tested, under 10 active; inconclusive = small, poorly fitted or top-dose-only inhibition, or a rising curve; inactive = flat fitted curve, though single readings scatter; no compound was filed as active;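 also: 0% = full activity with enzyme and -100% = basal without enzyme; dose as in the result columns while the protocol names 77 µM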
Target sequence (P06280 whole entry, looked up): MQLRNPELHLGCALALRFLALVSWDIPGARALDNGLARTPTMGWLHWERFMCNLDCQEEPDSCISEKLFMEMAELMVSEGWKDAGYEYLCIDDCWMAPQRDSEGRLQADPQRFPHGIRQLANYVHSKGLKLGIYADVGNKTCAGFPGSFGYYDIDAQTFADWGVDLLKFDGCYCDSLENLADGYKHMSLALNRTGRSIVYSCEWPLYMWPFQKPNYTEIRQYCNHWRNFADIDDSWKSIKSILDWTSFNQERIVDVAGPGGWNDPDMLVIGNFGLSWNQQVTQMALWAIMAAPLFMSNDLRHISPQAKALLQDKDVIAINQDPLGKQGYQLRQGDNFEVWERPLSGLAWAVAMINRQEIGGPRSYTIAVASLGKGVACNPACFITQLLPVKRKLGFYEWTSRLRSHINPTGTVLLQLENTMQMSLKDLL
miR-21 FLuc – miR-21 reporter, rising signal. 340,000 tested, under 10 active. HeLa miR-21 FLuc reporter, luciferase, 48 h. Potency, µM (doses to about 38.3 µM), for the others: top-dose reporter change, positive = more light; active = well fitted rising curve with a large enough effect; inconclusive = small, poorly fitted or top-dose-only effect; inactive = no such curve, though single readings can be large or run the other way;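 also: % of control where 0% means no effect; miR-21 action dims this reporter so a rising signal means less miR-21 action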
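Using DMEM plus 10% FBS, HeLa miR-21-FLuc cells are incubated with test compounds (final up to about 40uM) for 48 hours; firefly luciferase signal is then imaged following reagent-mediated lysis.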
The depositor's hits bear a star.

`CCOC(=O)N1CCN(C(=O)CC(C(=O)N2CCc3ccccc32)n2ccnc2)CC1` (centres undefined) gave Rango release inh -7.2%, Rango complex inh 4.3%, GLA inh pH 4.5 -0.9 and miR-21 FLuc 0.0%.
For Cc1ccc(-c2csc3ncnc(NCCN4CCOCC4)c23)cc1 the results were Rango release inh -4.2%, Rango complex inh inconclusive, GLA inh pH 4.5 -1.6 and miR-21 FLuc 20.6%.
Cc1c(-c2ccc(F)cc2)[n+](=O)c(-c2ccc(F)cc2)c(C)n1[O-] was read as Rango release inh -4.4%, Rango complex inh -0.2%, GLA inh pH 4.5 1.9 and miR-21 FLuc -3.0%.
Screening CC(=O)Nc1nc2cc(C(N)=O)ccc2s1 returned Rango release inh 14.6% and Rango complex inh -0.2%.
`COc1cc(/C=C2/NC(=O)N(c3cccc(Cl)c3)C2=O)ccc1O` gave Rango release inh -16.8%, Rango complex inh 2.3%, GLA inh pH 4.5 -3.3 and miR-21 FLuc -0.4%.
COc1cccc(OCC(=O)NNC(=O)Cc2cccs2)c1 was read as Rango release inh -2.4%, Rango complex inh -0.3%, GLA inh pH 4.5 2.7 and miR-21 FLuc -0.8%.
`CCCC(=O)Nc1cc(C)c(NC(=O)C23CC4CC(CC(C4)C2)C3)cn1` gave Rango release inh -11.8%, Rango complex inh -1.3%, GLA inh pH 4.5 1.5 and miR-21 FLuc -9.8%.
O=[N+]([O-])c1cccnc1N1CCN(c2ccccc2F)CC1 was read as Rango release inh 7.3%, Rango complex inh -0.3%, GLA inh pH 4.5 4.3 and miR-21 FLuc -26.5%.
Screening O=C1OCCC1Sc1nnc(-c2ccc(O)cc2)o1 (centres undefined) returned Rango release inh 4.7%, Rango complex inh 0.1%, GLA inh pH 4.5 -0.9 and miR-21 FLuc -2.7%.
CC(C)(C)OC(=O)NC(Cc1ccccc1)C(=O)NCCCC(=O)O (centres undefined) was read as Rango release inh inconclusive, Rango complex inh -1.7%, GLA inh pH 4.5 -3.0 and miR-21 FLuc -1.8%.
Screening COc1ccc(Cl)cc1CC=NNC(=O)c1cccc(C)c1O returned Rango release inh -4.6% and Rango complex inh -0.7%.
CC(CCc1ccc(O)cc1)N(C)CCc1ccccc1 (centres undefined) was read as Rango release inh 9.7%, Rango complex inh 0.7%, GLA inh pH 4.5 -3.5 and miR-21 FLuc 1.0%.
`CC(C)CCNC(=O)c1cccc(Cl)c1` gave Rango release inh 1.6%, Rango complex inh 3.2%, GLA inh pH 4.5 2.8 and miR-21 FLuc -18.8%.
COc1cccc(C(=O)O/N=C(\N)c2ccccn2)c1OC was read as Rango release inh -7.5%, Rango complex inh 0.3% and miR-21 FLuc -16.1%.
For CC(=O)Nc1ccc(S(=O)(=O)Nc2nc3ccccc3nc2Nc2ccc3ccccc3c2)cc1 the results were Rango release inh -23.1%, Rango complex inh -2.8%, GLA inh pH 4.5 -5.3 and miR-21 FLuc -24.4%.
Cc1ccc(CNC(=O)C(=O)NCCCn2ccnc2)cc1 was read as Rango release inh 8.5% and Rango complex inh -1.9%.
`c1cc2c(cc1C1CCCCC1)c1c3n2CCN=C3CCC1` gave Rango release inh -25.1%, Rango complex inh -1.5% and miR-21 FLuc 0.0%.
`Cc1cc(-c2ccc(C)c(S(=O)(=O)NCCc3ccco3)c2)on1` gave Rango release inh inconclusive, Rango complex inh -1.0% and miR-21 FLuc 1.2%.
Screening CCN(CC)CCN(C)C1CCC(c2ccccc2)CC1 (centres undefined) returned Rango release inh 5.9%, Rango complex inh -0.9%, GLA inh pH 4.5 2.6 and miR-21 FLuc -6.3%.
`COc1ccccc1CN1CC(C(=O)NCCn2ccc(C)n2)CCC1=O` (centres undefined) gave Rango release inh -9.5%, Rango complex inh 4.0% and miR-21 FLuc -6.2%.
Screening COc1ccc(-c2csc(N(CCc3ccccc3)C(=O)COc3ccccc3)n2)cc1 returned Rango release inh -6.3%, Rango complex inh 3.2%, GLA inh pH 4.5 0.0 and miR-21 FLuc -19.7%.
`Cc1cccc(Cc2c(C)nc3nc(SCC(=O)O)nn3c2C)c1` gave Rango release inh -3.2%, Rango complex inh -3.8%, GLA inh pH 4.5 4.3 and miR-21 FLuc -2.3%.
Cc1ccccc1CNC(=O)CC1C(=O)NCCN1Cc1c(F)cccc1Cl (centres undefined) was read as Rango release inh 2.0%, Rango complex inh -1.4%, GLA inh pH 4.5 2.5 and miR-21 FLuc 1.6%.
CCc1ccccc1Nc1nc2ccccc2n1C(C)C was read as Rango release inh 49.4%, Rango complex inh -0.5%, GLA inh pH 4.5 6.7 and miR-21 FLuc 0.7%.

Next part; the last 2 above are carried over.
Cc1ccccc1CNC(=O)CC1C(=O)NCCN1Cc1c(F)cccc1Cl (centres undefined) was read as Rango release inh 2.0%, Rango complex inh -1.4%, GLA inh pH 4.5 2.5 and miR-21 FLuc 1.6%.
CCc1ccccc1Nc1nc2ccccc2n1C(C)C was read as Rango release inh 49.4%, Rango complex inh -0.5%, GLA inh pH 4.5 6.7 and miR-21 FLuc 0.7%.
COc1ccc(CNC(=O)OCCN2CCN(S(=O)(=O)c3ccc(C)cc3)CCC2=O)cc1 was read as Rango release inh 2.1%, Rango complex inh -2.4%, GLA inh pH 4.5 6.9 and miR-21 FLuc -3.1%.
Screening COC/C=C/C1=CC2=CC(=O)C(C)(OC(=O)c3cnc4ccccc4n3)C(=O)C2=CN1CC(C)C (centres undefined) returned Rango release inh 10.2%, Rango complex inh -0.6% and GLA inh pH 4.5 -8.7.
`c1ccc(-c2n[nH]c(-c3ccccn3)n2)cc1` gave Rango release inh 0.9%, Rango complex inh 2.2%, GLA inh pH 4.5 4.3 and miR-21 FLuc -28.4%.
Screening CC(C)(C)c1ccc(C(=O)Nc2ccc(NC(=O)c3ccco3)cc2)cc1 returned Rango release inh 0.8%, Rango complex inh 2.1%, GLA inh pH 4.5 3.4 and miR-21 FLuc -10.3%.
For Cc1nc(C)c(C(=O)NNS(=O)(=O)c2ccc([N+](=O)[O-])cc2)s1 the results were Rango release inh -5.9%, Rango complex inh 0.1%, GLA inh pH 4.5 1.7 and miR-21 FLuc 0.2%.
For O=C1C(=O)N(CCc2c[nH]c3ccccc23)C(c2cccnc2)/C1=C(/O)c1ccccc1 (centres undefined) the results were GLA inh pH 4.5 -4.3 and miR-21 FLuc 1.3%.
For O=C(N/N=C/C(Br)=C/c1ccccc1)c1cccs1 the results were Rango release inh 16.8%, Rango complex inh -8.3%, GLA inh pH 4.5 -10.7 and miR-21 FLuc -49.2%.
Screening O=C(O)C1=C[C@H](c2ccc(F)cc2)C[C@H](OCCCCO)O1 returned Rango release inh -0.5%, Rango complex inh -0.3%, GLA inh pH 4.5 0.2 and miR-21 FLuc -5.6%.
`CCOC(=O)C1=C(CN2CCCCCC2)NC(=O)NC1c1ccc2c(c1)OCO2` (centres undefined) gave Rango release inh 28.4%, Rango complex inh 0.1%, GLA inh pH 4.5 -4.5 and miR-21 FLuc 3.1%.
O=S(=O)(c1ccc(F)c(F)c1F)N1CCN(c2ncnc3sccc23)CC1 was read as Rango release inh -6.2% and Rango complex inh 3.9%.
Screening CC(=O)Oc1ccc2ccc(=O)oc2c1 returned Rango release inh inconclusive, Rango complex inh inconclusive, GLA inh pH 4.5 inconclusive and miR-21 FLuc -4.6%.
For COc1ccc(/C=N/S(=O)(=O)CCc2ccccc2)c(OC)c1 the results were Rango release inh 6.5%, Rango complex inh 0.0%, GLA inh pH 4.5 13.1 and miR-21 FLuc 3.3%.
Screening Cc1cc(C)c(NC(=O)CN2C(=O)NC(CCc3ccccc3)C2=O)c(C)c1 (centres undefined) returned Rango release inh -7.3%, Rango complex inh -0.6%, GLA inh pH 4.5 -8.2 and miR-21 FLuc -0.2%.
Screening COCC1CCN(C(=O)C2CCN(c3nc(-c4ccccc4)nc4c3CCC4)CC2)C1 (centres undefined) returned Rango release inh 1.9%, Rango complex inh -0.4% and miR-21 FLuc 7.1%.
`O=C(NCc1ccc(Cl)cc1)c1ccc(CS(=O)Cc2cccc(Cl)c2)o1` (centres undefined) gave Rango release inh 6.7%, Rango complex inh -0.6% and miR-21 FLuc 13.0%.
`O=C1/C(=C\c2ccc(O)c(O)c2)C(c2ccccc2)=NN1c1ccccc1` gave Rango release inh -14.7%, Rango complex inh -0.2%, GLA inh pH 4.5 -1.1 and miR-21 FLuc -8.7%.
CCN(CC)CCNC(=O)c1cn(CC)c2cc(N3CCN(C)CC3)c(F)cc2c1=O was read as Rango release inh 0.7%, Rango complex inh -0.3% and miR-21 FLuc -4.5%.
Screening O=C(N/N=C/c1ccccc1[N+](=O)[O-])c1ccncc1 returned Rango release inh 5.2%, Rango complex inh -0.9% and miR-21 FLuc -13.4%.
Screening Cc1ccc(NC(=O)NC2CCCc3ccccc32)cc1 (centres undefined) returned Rango release inh 15.0%, Rango complex inh 3.6% and miR-21 FLuc -11.9%.
CN(C)S(=O)(=O)N1CCN(c2ccc([N+](=O)[O-])c(N3CCCCC3)c2)CC1 was read as Rango release inh -8.0%, Rango complex inh -4.2%, GLA inh pH 4.5 -9.2 and miR-21 FLuc -16.6%.
Cc1cc(-c2nn(-c3ccccc3F)cc2CNCCc2cnccn2)c(C)s1 was read as Rango release inh 22.8%, Rango complex inh -3.7%, GLA inh pH 4.5 -6.3 and miR-21 FLuc -4.8%.
`OCCC1CN(Cc2cn[nH]c2C2CCCCC2)CCN1C1CCCCC1` (centres undefined) gave Rango release inh -4.3%, Rango complex inh -4.8%, GLA inh pH 4.5 5.5 and miR-21 FLuc 1.5%.
For CN1C[C@@H]2[C@@H]3C(=O)N(C)C(=O)[C@@H]3[C@](C)(C1=O)N2C(=O)c1ccc(F)cc1 the results were Rango release inh -7.1% and Rango complex inh 1.8%.
Cc1c(C(=O)Nc2ccc3c(c2)OCO3)oc2ccccc12 was read as Rango release inh -16.3%, Rango complex inh 4.3% and miR-21 FLuc -50.9%.
Screening COc1cccc(NC(=O)N2CCCC2C(=O)NCc2ccccc2)c1 (centres undefined) returned Rango release inh 20.6%, Rango complex inh 0.1%, GLA inh pH 4.5 10.3 and miR-21 FLuc -1.1%.
CCC(C(=O)Nc1ccc(S(=O)(=O)Nc2ncccn2)cc1)c1ccccc1 (centres undefined) was read as Rango release inh -3.6%, Rango complex inh -0.2% and miR-21 FLuc -1.8%.
`COc1ccc(Cl)cc1C(=O)Nc1ccccc1N1CCN(C(=O)C(C)C)CC1` gave Rango release inh 6.8%, Rango complex inh -0.2%, GLA inh pH 4.5 -25.7 and miR-21 FLuc 18.3%.
For O=C1c2ccccc2NC(c2ccccc2O)N1O (centres undefined) the results were Rango release inh -8.9%, Rango complex inh 0.5% and miR-21 FLuc -3.1%.
For CN(C)C(=S)SCCn1c(N)nc(N(C)C)nc1=O the results were Rango release inh 2.1%, Rango complex inh 1.4%, GLA inh pH 4.5 0.2 and miR-21 FLuc 0.5%.
`Cc1ccc(S(=O)(=O)N(C)C)cc1NC(=O)COC(=O)CCC1CCCCC1` gave Rango release inh -10.1% and Rango complex inh -4.3%.
Screening CCOC(=O)c1c(N/N=C/c2ccncc2)n[nH]c1C returned Rango release inh -0.8%, Rango complex inh -1.9%, GLA inh pH 4.5 -4.7 and miR-21 FLuc -52.1%.
For O=C(N/N=C/c1cc([N+](=O)[O-])ccc1N1CCNCC1)c1ccc([N+](=O)[O-])cc1 the results were Rango release inh 4.9%, Rango complex inh -0.5%, GLA inh pH 4.5 10.0 and miR-21 FLuc 1.1%.
Cc1ccc(CNC(=O)C2CCN(S(=O)(=O)c3c(C)noc3C)CC2)cc1 was read as Rango release inh -1.4%, Rango complex inh -0.1%, GLA inh pH 4.5 9.5 and miR-21 FLuc -5.8%.
For CCCS(=O)(=O)c1nc(S(=O)(=O)c2ccc(C)cc2)c(N2CCC(C)CC2)s1 the results were Rango release inh 20.8%, Rango complex inh 5.5% and miR-21 FLuc 2.6%.
Screening Cc1ccc(-c2nnn(CC(=O)N(CCO)C(C(=O)NC(C)(C)C)c3ccncc3)n2)cc1 (centres undefined) returned Rango release inh -0.4%, Rango complex inh -2.7%, GLA inh pH 4.5 6.3 and miR-21 FLuc -3.5%.
Screening COc1ccc(N2C(=O)CC(c3ccc([N+](=O)[O-])cc3)C2=O)cc1 (centres undefined) returned Rango release inh -5.1%, Rango complex inh 0.5% and miR-21 FLuc -4.0%.

Compound activity (PubChem BioAssay)

Not all compounds are listed (hit frequency here may not be typical).
